Yeast UUG start = alters start codon recognition fidelity in yeast | S. cerevisiae UUG-firefly luciferase reporter, luminescence/redox ratio | activity score, % at 18.7 µM | 0.13% of 350,000 active | AID 602363;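 active = replicate mean at a twofold rise or more, about +100% in these data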;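 note: firefly luciferase made from a UUG start codon reports start codon fidelity; reporter light over untreated wells divided by growth signal over untreated wells; some hits fall short of that in this replicate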
* = called active by the depositor. Only part of the results is shown. The share of hits here may be higher or lower than overall.

SMILES	Yeast UUG start
CCCNC(=O)N1C[C@@H](O)COC[C@@H]2O[C@H](CC(=O)N3CCCCC3)CC[C@H]21	-1
C[C@H]1CN([C@@H](C)CO)C(=O)c2cccc(NC(=O)Nc3ccccc3)c2O[C@@H]1CN(C)Cc1ccc2c(c1)OCO2	-1
CCCNC(=O)N1C[C@H]2[C@@H](c3ccccc31)[C@H](CO)N2C(=O)Nc1ccc(F)cc1	1
CO[C@@H]1CN(C)C(=O)c2cc(NC(=O)c3cnccn3)ccc2OC[C@H](C)N(CCc2ccccc2)C[C@@H]1C	-10
COc1cccc(C(=O)Nc2ccc3c(c2)C(=O)N(C)[C@@H]2CC[C@@H](CC(=O)N[C@@H](C)c4ccccc4)O[C@H]2CO3)c1	7
CCC(=O)N1C[C@@H](C)[C@H](OC)CN(C)C(=O)c2cc(NS(C)(=O)=O)ccc2OC[C@@H]1C	1
COc1cccc(-c2ccc([C@H]3[C@@H](CO)N4CCCCN(C(=O)NC(C)C)C[C@@H]34)cc2)c1	-11
CN(C)C(=O)c1ccc(-c2ccc3c(c2)[C@@H]2[C@@H](CCN2C(=O)C2CC2)[C@@H](CO)N3C)cc1	8
C/C=C/c1ccc([C@H]2[C@@H](CO)N(C(=O)COC)[C@H]2CNC(=O)CC)cc1	6
CN1CCN(C(=O)C[C@H]2C[C@H]3c4cc(NS(=O)(=O)c5ccc(F)cc5)ccc4O[C@H]3[C@H](CO)O2)CC1	6
C[C@H](CO)N1C[C@H](C)[C@@H](CN(C)Cc2ccncc2)Oc2ccc(NC(=O)Nc3ccc(F)cc3)cc2CC1=O	-5
COc1ccc(S(=O)(=O)N(C)C[C@@H]2Oc3ccc(NC(=O)Cc4cn(C)c5ccccc45)cc3C(=O)N([C@@H](C)CO)C[C@@H]2C)cc1	-9
C[C@@H]1CN([C@@H](C)CO)C(=O)Cc2cc(NC(=O)Nc3ccc(F)cc3)ccc2O[C@H]1CN(C)Cc1ccc2c(c1)OCO2	0
O=C(NCC1CC1)[C@@H]1[C@@H](CO)[C@@H]2Cn3c(ccc(C4=CCCCC4)c3=O)[C@@H]2N1Cc1ccccc1F	23
Cc1ccccc1-c1ccc([C@@H]2[C@@H](CO)N3CCCCN(C(=O)Nc4ccccc4)C[C@@H]23)cc1	18
C[C@@H](NC(=O)[C@H]1[C@H](CO)[C@H]2Cn3c(cccc3=O)[C@@H]1N2Cc1ccccc1)c1ccccc1	18
C[C@@H]1CN([C@@H](C)CO)C(=O)c2cc(NC(=O)NC3CCCCC3)ccc2O[C@@H]1CN(C)CC1CCCCC1	3
CC(C)NC(=O)Nc1ccc2c(c1)C(=O)N([C@@H](C)CO)C[C@H](C)[C@@H](CN(C)Cc1ccc3c(c1)OCO3)O2	-6
CCC(=O)NC[C@H]1[C@@H](c2ccccc2)[C@@H](CO)N1C(=O)C1CCC1	-11
CCC(=O)NC[C@@H]1[C@H](c2ccccc2)[C@H](CO)N1C(=O)C1CC1	33
COc1ccc(-c2ccc([C@H]3[C@@H](CO)N4CCCCN(C(=O)c5ccc(F)cc5)C[C@H]34)cc2)cc1	-5
COCC(=O)N1[C@@H](CO)[C@@H]2c3ccccc3N(C(=O)c3ccccc3)C[C@@H]21	-2
CC(C)NC(=O)Nc1ccc2c(c1)CC(=O)N([C@H](C)CO)C[C@H](C)[C@H](CN(C)Cc1ccc(Cl)c(Cl)c1)O2	-6
COc1ccc(S(=O)(=O)Nc2cccc3c2O[C@@H](CN(C)C)[C@@H](C)CN([C@@H](C)CO)C3=O)cc1	-4
O=C(Nc1ccccc1F)N1C[C@@H]2[C@H](c3ccccc31)[C@H](CO)N2C(=O)Nc1ccccc1	-2
More structures follow:
SMILES	Yeast UUG start
CC(=O)N1[C@H](CN(CC(C)C)C(=O)c2ccccn2)[C@@H](c2ccccc2)[C@@H]1CO	-10
CCC(=O)Nc1ccc2c(c1)C(=O)N(C)C[C@H](OC)[C@@H](C)CN(Cc1cccnc1)[C@@H](C)CO2	-7
COCC#Cc1ccc([C@@H]2[C@H]3CN(Cc4cccnc4)CCCCN3[C@H]2CO)cc1	5
COCC(=O)N1C[C@H]2[C@@H](c3ccccc31)[C@@H](CO)N2Cc1ccccc1F	-4
CCC(=O)N1[C@H](CO)[C@H](c2ccc(-c3cccc(F)c3)cc2)[C@H]1CNC(C)=O	8
COc1cccc(C(=O)N2C[C@@H]3[C@H](c4ccccc42)[C@@H](CO)N3Cc2ccccc2F)c1	-3
CO[C@H]1CN(C)C(=O)c2ccc(NC(=O)c3ccc4c(c3)OCO4)cc2OC[C@@H](C)NC[C@H]1C	1
C/C=C/c1ccc([C@@H]2[C@@H](CO)N(C(C)=O)[C@H]2CN(C)C(=O)c2ccccn2)cc1	3
C[C@@H]1CN([C@H](C)CO)C(=O)c2cc(N(C)C)ccc2O[C@H]1CN(C)C(=O)Nc1ccccc1	-6
CCCNC(=O)[C@H]1[C@H](CO)[C@H]2Cn3c(ccc(-c4ccc(F)cc4)c3=O)[C@H]2N1CC	0
CCCNC(=O)C[C@H]1CC[C@@H]2[C@H](COC[C@@H](O)CN2C(=O)Nc2ccc3c(c2)OCO3)O1	-5
COc1ccc(NC(=O)Nc2ccc3c(c2)CC(=O)N([C@H](C)CO)C[C@@H](C)[C@@H](CN(C)C)O3)cc1	8
CNC[C@@H]1Oc2ccc(NC(=O)Nc3ccccc3)cc2CC(=O)N([C@@H](C)CO)C[C@@H]1C	-13
C[C@H](CO)N1C[C@H](C)[C@H](CN(C)Cc2ccc(-c3ccccc3)cc2)Oc2c(NC(=O)c3ccncc3)cccc2C1=O	20
O=C(C[C@H]1CC[C@H]2[C@@H](COC[C@H](O)CN2S(=O)(=O)c2ccccc2)O1)Nc1ccc(-c2ccccc2)cc1	-1
CCCN(C)C[C@H]1OCc2cn(nn2)CCCC(=O)N([C@H](C)CO)C[C@H]1C	4
C[C@H](CO)N1C[C@H](C)[C@@H](CN(C)C(=O)Nc2ccc(F)cc2)Oc2ccc(NC(=O)Cc3cn(C)c4ccccc34)cc2C1=O	17
CN1CCCCN2[C@H](CO)[C@H](c3ccc(-c4ccc(F)cc4)cc3)[C@H]2C1	-16
CO[C@H]1CN(C)C(=O)c2cc(NC(=O)c3ccccc3F)ccc2OC[C@@H](C)N(CC2CC2)C[C@H]1C	-6
O=C(Nc1ccc(F)cc1)N1C[C@H]2[C@@H](c3ccccc31)[C@H](CO)N2C(=O)c1ccc(F)cc1	-2
CO[C@H]1CN(C)C(=O)c2ccc(NC(=O)c3cccc(F)c3)cc2OC[C@@H](C)N(C)C[C@H]1C	22
COc1ccc(CN2C[C@@H](C)[C@@H](OC)CN(C)C(=O)c3cc(NC(C)=O)ccc3OC[C@@H]2C)cc1	-13
O=C(C1CCOCC1)N1C[C@@H]2[C@H](c3ccccc31)[C@H](CO)N2C(=O)Cc1ccccc1	-14
O=C(C[C@@H]1CC[C@@H]2[C@H](COC[C@H](O)CN2C(=O)C2CCCC2)O1)NCc1ccncc1	5
C[C@@H]1CN([C@H](C)CO)C(=O)Cc2cc(NC(=O)C3CC3)ccc2O[C@@H]1CN(C)C(=O)Nc1ccccc1	15

An excerpt of these results, with values ahead of the structure.
Yeast UUG start | SMILES
-1 | O=C(C[C@H]1CC[C@H]2[C@@H](COC[C@H](O)CN2S(=O)(=O)c2ccccc2)O1)Nc1ccc(-c2ccccc2)cc1
4 | CCCN(C)C[C@H]1OCc2cn(nn2)CCCC(=O)N([C@H](C)CO)C[C@H]1C
17 | C[C@H](CO)N1C[C@H](C)[C@@H](CN(C)C(=O)Nc2ccc(F)cc2)Oc2ccc(NC(=O)Cc3cn(C)c4ccccc34)cc2C1=O
-16 | CN1CCCCN2[C@H](CO)[C@H](c3ccc(-c4ccc(F)cc4)cc3)[C@H]2C1
-6 | CO[C@H]1CN(C)C(=O)c2cc(NC(=O)c3ccccc3F)ccc2OC[C@@H](C)N(CC2CC2)C[C@H]1C
-2 | O=C(Nc1ccc(F)cc1)N1C[C@H]2[C@@H](c3ccccc31)[C@H](CO)N2C(=O)c1ccc(F)cc1
22 | CO[C@H]1CN(C)C(=O)c2ccc(NC(=O)c3cccc(F)c3)cc2OC[C@@H](C)N(C)C[C@H]1C
-13 | COc1ccc(CN2C[C@@H](C)[C@@H](OC)CN(C)C(=O)c3cc(NC(C)=O)ccc3OC[C@@H]2C)cc1
-14 | O=C(C1CCOCC1)N1C[C@@H]2[C@H](c3ccccc31)[C@H](CO)N2C(=O)Cc1ccccc1
5 | O=C(C[C@@H]1CC[C@@H]2[C@H](COC[C@H](O)CN2C(=O)C2CCCC2)O1)NCc1ccncc1
15 | C[C@@H]1CN([C@H](C)CO)C(=O)Cc2cc(NC(=O)C3CC3)ccc2O[C@@H]1CN(C)C(=O)Nc1ccccc1

Continued.
SMILES	Yeast UUG start
Cc1cc(C(=O)Nc2cccc3c2O[C@@H](CN(C)Cc2ccncc2)[C@H](C)CN([C@H](C)CO)C3=O)n(C)n1	-5
COCC(=O)N1[C@H](CO)[C@@H]2c3ccccc3N(C(=O)c3ccccc3)C[C@@H]21	-7
CC(=O)N1[C@H](CO)[C@@H](c2ccc(-c3ccccc3)cc2)[C@@H]1CNC(=O)C1CC1	-1
CC(=O)N1CCCCN2[C@H](CO)[C@H](c3ccc(C#Cc4ccccc4F)cc3)[C@H]2C1	28
CO[C@@H]1CN(C)C(=O)c2ccc(NC(=O)C3CCCCC3)cc2OC[C@@H](C)N(C(=O)Nc2ccc(C(F)(F)F)cc2)C[C@H]1C	-5
O=C(C1CCCCC1)N1CC[C@@H]2[C@H]1c1cc(Br)ccc1N[C@@H]2CO	-16
COc1ccccc1-c1ccc2c(c1)[C@H]1[C@H](CCN1S(=O)(=O)c1cccc(F)c1)[C@@H](CO)N2	-17
CO[C@H]1CN(C)C(=O)c2cc(NC(=O)C3CCOCC3)ccc2OC[C@@H](C)N(Cc2nccs2)C[C@@H]1C	1
CNC[C@@H]1Oc2ccc(NS(=O)(=O)c3ccc(C)cc3)cc2C(=O)N([C@H](C)CO)C[C@H]1C	-7
O=C(c1cnccn1)N1CC[C@@H]2[C@@H](CO)Nc3ccc(C#Cc4cccnc4)cc3[C@@H]21	-9
C[C@H](CO)N1C[C@H](C)[C@@H](CN(C)C(=O)Nc2ccc(F)cc2)Oc2ccc(NC(=O)Cc3ccccc3)cc2CC1=O	3
CO[C@@H]1CN(C)C(=O)c2cc(NC(=O)c3cc(C)on3)ccc2OC[C@@H](C)N(C(C)=O)C[C@@H]1C	10
COc1ccc(CN(C)C[C@@H]2Oc3ccc(NS(=O)(=O)c4ccc(Cl)cc4)cc3CC(=O)N([C@H](C)CO)C[C@@H]2C)cc1	7
O=C(C[C@H]1C[C@H]2c3cc(NS(=O)(=O)c4ccc(F)cc4)ccc3O[C@H]2[C@@H](CO)O1)NCc1ccncc1	-24
C[C@H](CO)N1C[C@H](C)[C@H](CN(C)CC2CCCCC2)Oc2c(NS(=O)(=O)c3ccc(F)cc3)cccc2C1=O	1
COc1cccc(S(=O)(=O)N2CC[C@@H]3[C@@H](CO)Nc4ccc(C#Cc5ccccc5)cc4[C@@H]32)c1	1
COCC(=O)N1[C@@H]2CN(C)c3ccccc3[C@@H]2[C@@H]1CO	1
COc1ccccc1S(=O)(=O)N1CC[C@@H]2[C@@H](CO)Nc3ccc(-c4ccc(F)cc4)cc3[C@@H]21	-11
C[C@H](O)C#Cc1ccc([C@@H]2[C@@H](CO)N3CCCCN(C(=O)c4cccc(F)c4)C[C@H]23)cc1	14
O=C(C[C@@H]1CC[C@@H]2[C@H](COC[C@@H](O)CN2C(=O)Nc2ccc(F)cc2)O1)NC1Cc2ccccc2C1	14
CO[C@H]1CN(C)C(=O)c2cc(NC(=O)C3CCCC3)ccc2OC[C@@H](C)N(CC2CC2)C[C@@H]1C	-6
CN1CCN(C(=O)C[C@@H]2C[C@H]3c4cc(NC(=O)Nc5ccc(F)cc5)ccc4O[C@H]3[C@H](CO)O2)CC1	2
Cc1cc(C(=O)Nc2cccc3c2O[C@@H](CN(C)Cc2ccncc2)[C@H](C)CN([C@@H](C)CO)C3=O)n(C)n1	-8
C/C=C/c1ccc([C@H]2[C@H](CO)N(C(=O)CC)[C@H]2CNC(=O)CC)cc1	-5
CN(C)C(=O)c1cccc(-c2ccc3c(c2)[C@@H]2[C@@H](CCN2C(=O)C2CCOCC2)[C@@H](CO)N3)c1	1
Next section.
SMILES	Yeast UUG start
CCCN1C[C@@H](C)[C@@H](OC)CN(C)C(=O)c2cc(NS(=O)(=O)c3cn(C)cn3)ccc2OC[C@H]1C	-5
C[C@H](CO)N1C[C@H](C)[C@@H](CN(C)S(=O)(=O)c2ccc(Cl)cc2)Oc2ccc(NC(=O)Nc3ccccc3)cc2C1=O	-15
O=C(Nc1ccccc1)N1CCCCN2[C@@H](CO)[C@@H](c3ccc(C#Cc4ccccc4)cc3)[C@@H]2C1	13
Cc1noc(C)c1S(=O)(=O)Nc1ccc2c(c1)C(=O)N([C@H](C)CO)C[C@@H](C)[C@@H](CN(C)C)O2	-1
C[C@@H]1CN([C@H](C)CO)C(=O)c2cccc(NS(=O)(=O)c3ccccc3)c2O[C@@H]1CN(C)C(=O)Nc1ccc(F)cc1	0
COc1ccccc1NC(=O)N1CCCCN2[C@H](CO)[C@@H](c3ccc(-c4cccc(C#N)c4)cc3)[C@H]2C1	11
C[C@@H]1CN([C@H](C)CO)C(=O)c2cc(NS(=O)(=O)c3cn(C)cn3)ccc2O[C@H]1CN(C)Cc1ccc(C(=O)O)cc1	-16
C[C@H]1CN([C@@H](C)CO)C(=O)c2cc(NC(=O)c3ccncc3)ccc2O[C@H]1CN(C)C(=O)Nc1ccc2c(c1)OCO2	-7
C[C@H]1CN([C@@H](C)CO)C(=O)c2cc(NS(=O)(=O)c3ccc(F)cc3)ccc2O[C@H]1CN(C)CC1CC1	-7
CC(=O)N1CCCCN2[C@H](CO)[C@H](c3ccc(-c4ccncc4)cc3)[C@@H]2C1	5
COc1ccc(CN(C)C[C@H]2Oc3ccc(NS(=O)(=O)c4ccc(C)cc4)cc3CC(=O)N([C@@H](C)CO)C[C@@H]2C)cc1	6
C[C@H]1CN([C@@H](C)CO)C(=O)c2cc(NC(=O)Nc3ccc(C(F)(F)F)cc3)ccc2O[C@H]1CN(C)S(=O)(=O)c1cn(C)cn1	15
COc1ccc(-c2ccc([C@@H]3[C@@H](CO)N4CCCCN(C(=O)c5ccc(F)cc5)C[C@H]34)cc2)cc1	7

Screening results: PubChem BioAssay, Broad Institute
